UUG fidelity = modulators of start codon recognition fidelity in yeast; S. cerevisiae UUG-firefly luciferase reporter, luminescence/redox ratio; activity score, % at 18.7 µM; 0.13% of 350,000 active; AID 602363;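 active means replicate mean at a twofold rise or more, about +100% in these data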;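 further: firefly luciferase made from a UUG start codon reports start codon fidelity; reporter light over untreated wells divided by growth signal over untreated wells; some hits fall short of that in this replicate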
Env fusion inh = HIV envelope-mediated fusion inhibition. HeLa-JRFL Env/CEM21 cell fusion, luciferase. inhibition, % at 12.3 µM. 1.1% of 360,000 active. AID 651610;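 active means mean replicate inhibition score of at least 50 and every replicate individually at or above 50; inconclusive means only one of the two criteria met; inactive means mean below 50 and not all replicates reaching 50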;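 further: 0% = plate neutral controls and 100% = maraviroc near 300 nM; one replicate is shown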
eIF4H inh = inhibitors of RNA binding by human eIF4H | AID 2012 | 0.94% of 290,000 active | inhibition, % at 35 µM | eIF4H fluorescence polarization binding assay | Q15056;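 active means 50% or more with normal probe brightness, or confirmed in later tests; inconclusive means above 50% with abnormal brightness, or retests that disagree; inactive means below 50% or failed in later tests; about a fifth of its hits are not listed in these tables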;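 further: calls also rest on retests at 20 µM and on dose response follow-up; 0% = protein and probe with vehicle and 100% = probe without protein; strong numbers were not always called active; many hits fall short of the cut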
MT1-MMP act inh = inhibitors of human MT1-MMP activation. P50281. HT1080 RFP-PRO-GFP cells, GFP/RFP ratio fluorescence, overnight; percent of plate control window, DMSO zero. GFP/RFP ratio change, % at 20 µM. 0.061% of 360,000 active. AID 651647;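 active means GFP/RFP ratio change of at least 30% with cell ATP level not reduced by more than half and red fluorescence within 50% of control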; further: strong numbers were not always called active
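Assay system – RFP-PRO-GFP reporter HT1080 cells · Compound dosing – single dose of 20 µM compound, 1% DMSO final · Incubation – overnight compound exposure at 37 °C · Measure – GFP/RFP fluorescence ratio · Benchmarks – DMSO wells and RFP-L50D-GFP cells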
Rce1 inhib = inhibitors of yeast Ras-converting enzyme; Q03530; yeast membranes, quenched prenylated peptide cleavage fluorescence; calls only; 0.27% of 290,000 active; AID 2563;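 active means fall in fluorescence gain of 50% or more versus controls, with final raw signal at or below 3038400; inconclusive means same 50% fall but final raw signal above 3038400; inactive means fall in fluorescence gain under 50%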;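 further: plate controls were neutral control wells for no effect and wells lacking membranes for full effect; tested at 10 µM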
Target sequence (Q03530 whole entry, looked up): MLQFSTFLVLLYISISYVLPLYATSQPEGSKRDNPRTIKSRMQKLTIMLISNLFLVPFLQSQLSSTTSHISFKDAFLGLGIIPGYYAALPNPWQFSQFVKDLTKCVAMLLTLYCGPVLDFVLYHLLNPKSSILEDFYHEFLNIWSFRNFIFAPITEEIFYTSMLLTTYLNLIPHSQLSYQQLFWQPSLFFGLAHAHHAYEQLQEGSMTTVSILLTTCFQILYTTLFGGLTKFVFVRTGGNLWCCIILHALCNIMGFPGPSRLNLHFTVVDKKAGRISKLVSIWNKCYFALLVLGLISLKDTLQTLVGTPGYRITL
PABP polyA inh = PABP-poly(A) binding inhibition. P11940. PABP-poly(A) RNA binding, fluorescence polarization. inhibition, % at 35 µM. 1% of 290,000 active;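 active means 50% or more with normal probe brightness, or confirmed in later tests; inconclusive means above 50% with abnormal brightness, or retests that disagree; inactive means below 50% or failed in later tests; about a fifth of its hits are not listed in these tables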;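 further: calls also rest on retests at 20 µM and on dose response follow-up; controls were probe without protein and protein plus probe with vehicle; some compounds called inactive have numbers as strong as hits; many hits fall short of the cut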
Target sequence (P11940 whole entry, looked up): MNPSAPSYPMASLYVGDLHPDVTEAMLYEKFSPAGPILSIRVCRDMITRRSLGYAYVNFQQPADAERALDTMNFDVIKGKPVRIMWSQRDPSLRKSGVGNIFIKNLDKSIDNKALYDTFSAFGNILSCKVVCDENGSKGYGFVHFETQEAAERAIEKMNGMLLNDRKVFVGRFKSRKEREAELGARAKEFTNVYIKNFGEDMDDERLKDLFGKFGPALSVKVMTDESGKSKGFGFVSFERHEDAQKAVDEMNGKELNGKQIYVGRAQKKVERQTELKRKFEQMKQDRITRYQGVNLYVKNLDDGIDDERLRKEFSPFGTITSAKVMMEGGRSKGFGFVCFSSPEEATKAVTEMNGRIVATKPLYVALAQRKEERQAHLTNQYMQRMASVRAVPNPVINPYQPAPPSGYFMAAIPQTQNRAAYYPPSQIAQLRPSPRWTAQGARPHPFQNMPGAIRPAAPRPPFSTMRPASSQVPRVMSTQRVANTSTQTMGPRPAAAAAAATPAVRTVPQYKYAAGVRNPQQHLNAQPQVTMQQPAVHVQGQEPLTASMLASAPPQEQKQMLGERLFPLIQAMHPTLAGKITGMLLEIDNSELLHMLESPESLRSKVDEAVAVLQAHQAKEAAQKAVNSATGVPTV
CSC inhib = cancer stem cell inhibition. cancer stem cell-like cells viability, luminescence. inhibition, % at 7.5 µM. 1.1% of 300,000 active;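 active means mean at 75% or more and at least half the replicates too; inconclusive means mean and replicates disagree; tested in HMLE shEcad cells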;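 further: 0% = median of negative and 100% = median of positive control wells; the first replicate is given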
eIF4H inh retest = recorded beside eIF4H inh, whose call it bears; inhibition, %; compound at 20 µM; confirmation average;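 mean of two retest wells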
PABP polyA inh retest = further read-out of PABP polyA inh, marked with its call; inhibition, %; compound at 20 µM; confirmation repeats;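 mean of two retest wells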
MT1-MMP act inh RFP = also measured in MT1-MMP act inh; calls as there; RFP signal change, %; measured here: RFP expression control read;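 0 = vehicle wells; hits needed this value within 50% of zero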
Starred values were filed as active, the others as inactive; i = inactive; ? = inconclusive; · = no result given.

SMILES | UUG fidelity | Env fusion inh | eIF4H inh | MT1-MMP act inh | MT1-MMP act inh RFP | Rce1 inhib | PABP polyA inh | CSC inhib | others
OC(CNC1CCCc2ccccc21)COc1c(Cl)cccc1Cl (centres undefined) | · | 11 | -4 | 2 | 0 | i | -9 | 8
CC/C(O)=C1\C(=O)CC(c2ccccc2)CC1=NCCC(=O)O (centres undefined) | · | -4 | -18 | 6 | 6 | i | -5 | -9
Cc1ccc(O)c(NC(=O)C2CC(c3ccc(F)cc3)=NO2)c1 (centres undefined) | -2 | · | -9 | 11 | 6 | i | 9 | -7
Cc1ccc(NNC(N)=S)cc1Cl | 3 | 17 | -1 | 1 | 1 | i | -7 | -4
O=C(CN1CCN(c2ncccn2)CC1)NCc1ccc2c(c1)OCO2 | -10 | 0 | -2 | -1 | -2 | i | 3 | 3
O=C(NNc1ccccc1)OCc1ccccc1 | -12 | -22 | · | 2 | 0 | · | · | ·
CCOc1cc(NC(=O)Nc2ccc(F)cc2)c(OCC)cc1NC(=O)CC | -1 | -7 | -7 | 2 | 1 | i | 0 | -9
Cc1ccc(SC(C)C(=O)Nc2ncn[nH]2)cc1 (centres undefined) | -3 | 13 | -3 | 1 | 1 | i | -4 | -13
CC(C)(C)NS(=O)(=O)c1ccc(OCC(=O)NCC2CCCO2)cc1 (centres undefined) | 0 | -18 | · | 1 | 3 | i | · | -8
O=C1CC(=O)N(CCc2ccccc2)C(=O)N1CCc1ccccc1 | -16 | -58 | 107 | -37 | 7 | i | 84 | 2 | eIF4H inh retest=-3;PABP polyA inh retest=-1
NS(=O)(=O)c1ccc(CCNCc2cccs2)cc1 | · | 1 | 1 | 9 | 10 | i | 6 | -10
CCOC(=O)[C@@H]1[C@H]2COc3ccc(Br)cc3[C@@H]2N2C(=O)N(c3ccc(Br)cc3)C(=O)[C@@]12C | -7 | 38 | · | -5 | -9 | · | · | -3
COc1ccc(OC)c(S(=O)(=O)Nc2ccc(-c3ccc4nncn4n3)cc2)c1 | · | 15 | · | -6 | -2 | i | · | 44
COC(=O)Cc1nc(NC(=O)c2cccs2)sc1C | -7 | · | -3 | 3 | -5 | i | -3 | 2
NNC(=O)c1ccc(COc2cccc3ccccc23)o1 | -14 | -10 | -2 | -2 | 1 | i | -14 | 8
O=C(c1ccc(CSc2ccc(Cl)cc2)cc1)N1CCCC1 | · | 18 | -11 | -1 | -13 | i | 12 | 14
CCOc1ccc(S(=O)(=O)N2CCC(C(=O)NCc3ccncc3)CC2)cc1Cl | -6 | 2 | -7 | 0 | 0 | i | -2 | -7
CC(C)(C)n1nnnc1CN1CCC(NC(=O)NC2CCCCC2)CC1 | -11 | -25 | -3 | 3 | 1 | i | -13 | -12
COc1ccc(CN2CCOCCOCCOCCOCCOCC2)cc1 | · | -4 | 2 | -6 | 1 | i | 6 | -11
CC(C)CCNC(=O)CCc1nnc(Cc2c[nH]c3ccccc23)o1 | -12 | 23 | -13 | -1 | 1 | i | -4 | 0
Cc1ccc(C(=O)/C=C/c2cc(C#N)n(C)c2C)cc1 | -12 | -11 | 0 | -3 | -4 | i | -2 | 8
CCc1nn(CCCC(=O)N2CCc3ccccc3C2)c(=O)c2cc3occc3n12 | -14 | · | 13 | -2 | 3 | i | 12 | -11
O=C(NCCCN1CCOCC1)C1COc2ccccc2O1 (centres undefined) | -14 | -18 | -7 | 4 | 14 | i | -4 | -16
c1ccc(OCCNc2ccn3nc(-c4ccccc4)cc3n2)cc1 | -12 | -34 | · | 5 | 0 | · | · | ·
CC1CCN(S(=O)(=O)c2ccc(C(=O)NNC(=O)C3CC3)cc2)CC1 | · | -8 | -6 | 0 | 3 | i | 7 | -3
Cn1c(=O)c2c(ncn2CC(=O)OCC(=O)Nc2ccc(F)cc2Cl)n(C)c1=O | -28 | 14 | · | 2 | 5 | · | · | 6
O=[N+]([O-])c1ccc(N/N=C/c2cccc(O)c2)cc1 | -20 | -79 | 1 | -16 | -4 | i | -20 | 47
CCC(C)n1c(SCC(=O)Nc2cc(C(C)(C)C)nn2-c2ccccc2)nc2ccccc2c1=O (centres undefined) | -13 | 31 | 5 | -13 | -11 | i | 11 | 23
CC(=O)NC1(c2ccc(F)cc2)CCN(C(=O)Nc2ccc(F)cc2F)CC1 | -15 | · | -5 | 5 | 6 | i | -8 | 9
COc1cc(/C=C2\C(=O)N(C)C(=S)N2C)ccc1O | · | · | -9 | -13 | 11 | i | 18 | 5

Reprinted at random: 7 records from the list, in no set order.
SMILES | UUG fidelity | Env fusion inh | eIF4H inh | MT1-MMP act inh | MT1-MMP act inh RFP | Rce1 inhib | PABP polyA inh | CSC inhib | others
CCc1nn(CCCC(=O)N2CCc3ccccc3C2)c(=O)c2cc3occc3n12 | -14 | · | 13 | -2 | 3 | i | 12 | -11
O=C(NCCCN1CCOCC1)C1COc2ccccc2O1 (centres undefined) | -14 | -18 | -7 | 4 | 14 | i | -4 | -16
COc1cc(/C=C2\C(=O)N(C)C(=S)N2C)ccc1O | · | · | -9 | -13 | 11 | i | 18 | 5
CC(=O)NC1(c2ccc(F)cc2)CCN(C(=O)Nc2ccc(F)cc2F)CC1 | -15 | · | -5 | 5 | 6 | i | -8 | 9
Cn1c(=O)c2c(ncn2CC(=O)OCC(=O)Nc2ccc(F)cc2Cl)n(C)c1=O | -28 | 14 | · | 2 | 5 | · | · | 6
CCC(C)n1c(SCC(=O)Nc2cc(C(C)(C)C)nn2-c2ccccc2)nc2ccccc2c1=O (centres undefined) | -13 | 31 | 5 | -13 | -11 | i | 11 | 23
Cc1ccc(C(=O)/C=C/c2cc(C#N)n(C)c2C)cc1 | -12 | -11 | 0 | -3 | -4 | i | -2 | 8

Further records:
SMILES | UUG fidelity | Env fusion inh | eIF4H inh | MT1-MMP act inh | MT1-MMP act inh RFP | Rce1 inhib | PABP polyA inh | CSC inhib | others
CC(C)Nc1nc(Nc2ccc(C#N)cc2)c2sccc2n1 | -13 | 35 | · | -7 | -12 | · | · | ·
O=C(/C=C/c1ccccn1)c1ccc(Br)cc1O | · | -13 | -6 | -5 | -1 | · | -10 | 12
CCc1ccc(C(=O)CN2C(=O)NC(C)(c3ccc(C)cc3)C2=O)cc1 (centres undefined) | -3 | 69* | -5 | 3 | 2 | i | -8 | 7
COc1ccc(CN(C(=O)c2nsc(Cl)c2Cl)C(C(=O)NC2CCCCC2)c2ccc(OC)cc2)cc1 (centres undefined) | · | · | -3 | -46 | -35 | i | -11 | 11
OC(c1cccc(Cl)c1)c1nc(-c2csc3ccccc23)cs1 (centres undefined) | -34 | -19 | · | 2 | 3 | · | · | ·
CCCNC(=O)COC(=O)c1cc2c(=O)n3ccccc3nc2s1 | · | 10 | 83 | 3 | 9 | i | 4 | 0 | eIF4H inh retest=30;PABP polyA inh retest=17
O=C(COC(=O)C1=Cc2ccccc2OC1)NCc1ccco1 | · | 5 | -10 | 3 | -3 | i | -7 | -7
Cc1nc2nc(C(F)(F)F)[nH]c2nc1C | -17 | -10 | · | 4 | 4 | · | · | ·
COc1ccc(-c2ccc(N(C)C)cc2)cc1[C@H]1[C@@H]2C=CCC[C@@]2(C)C(=O)N1Cc1ccccc1 | -34 | 8 | -1 | -16 | -15 | i | -7 | 49
CN(C(=O)COC(=O)CNC(=O)c1ccc(C(C)(C)C)cc1)c1c(N)n(Cc2ccccc2)c(=O)[nH]c1=O | -2 | -6 | · | -1 | 1 | i | · | ·
COc1cccc(-c2nnc(NC(=O)c3cccs3)s2)c1 | · | -30 | 1 | -7 | -5 | i | 5 | -4
COc1cc(CC(=O)Nc2ccc(N3CCOCC3)cc2)cc(OC)c1OC | · | 4 | -7 | 2 | 3 | i | -5 | -35
Cc1cccc(C)c1NC(=O)CN(C)C(=O)C1CC(=O)N(c2cccc3ccccc23)C1 (centres undefined) | 10 | 19 | · | 7 | 1 | · | · | ·
O=C(N/N=C/c1cccnc1)c1cc(-c2ccc(Br)cc2)nc2ccccc12 | -13 | 17 | -11 | 0 | -8 | i | 10 | 3
CN(C)S(=O)(=O)N1CCN(c2ccc([N+](=O)[O-])cc2)CC1 | -9 | -22 | 3 | 0 | 0 | i | -6 | -1
COc1ccc(NC(=O)CCNS(=O)(=O)c2ccc3c(c2)CC(C)N3C(=O)C2CC2)cc1 (centres undefined) | -9 | -16 | -13 | 1 | 1 | i | -3 | 1
CCc1cccc(CC)c1NC(=O)C1SC(=Nc2ccccc2C)C(c2nc3ccccc3s2)=C1N (centres undefined) | -14 | 6 | 0 | -11 | -12 | i | -3 | 60
Cc1nn(CC2CC2)c(=O)n1-c1cccc(Cl)c1 | 4 | 4 | -1 | -1 | 0 | i | -9 | 16
O=C(COc1ccc(Oc2ccccc2)cc1)NCc1cn2ccccc2n1 | · | -365 | -9 | 2 | -14 | i | 0 | 60
CCNc1nc(SCC(=O)Nc2ccccc2)nc(N2CCOCC2)n1 | -14 | 24 | 1 | -2 | -2 | i | -6 | -1
NC1=NC[C@H](Cc2ccc(O)cc2)N1CCc1cc(C(F)(F)F)cc(C(F)(F)F)c1 | -16 | -23 | -2 | 1 | -2 | i | -8 | -27
C[C@H](O)[C@@H]1CN2CCc3c([nH]c4ccccc34)[C@@H]2C[C@@H]1N(C)C(=O)c1ccco1 | 10 | -12 | · | -5 | 4 | · | · | ·
CCOC(=O)c1ccc(NC(=O)CSc2nnc(-c3cccs3)n2C)cc1 | -13 | · | 4 | 2 | 6 | i | 45 | -5
O=C(Nc1ccccc1O)c1cc(S(=O)(=O)N2CCOCC2)c(Cl)cc1Cl | -17 | -9 | 7 | 10 | -10 | i | -3 | -7
CCCCn1c(O)c(/C=C2\C=Nc3ccccc32)c(=O)[nH]c1=O | 0 | -11 | ? | -3 | 3 | i | ? | -9
COCCNC(=O)C(=O)N/N=C/c1ccccc1C(F)(F)F | -16 | 15 | 2 | -1 | 4 | i | 11 | 3
CSc1ccc(/C=N/NC(=O)c2ccc3nc[nH]c3c2)cc1 | -21 | -95 | · | -3 | -2 | · | · | ·
CC(C)N(C)c1ncnc2c1ncn2[C@H]1CN(Cc2ccncc2)C[C@@H](CO)O1 | -18 | -16 | · | 0 | -9 | · | · | ·
Cc1ccc(-n2nnnc2-c2ccco2)cc1 | 89 | · | -4 | 8 | 5 | · | -5 | 7
O=C(N/N=C/C=C\c1ccc([N+](=O)[O-])cc1)c1cccnc1 | -18 | 3 | -14 | 2 | 1 | i | -9 | -8
CCOc1ccccc1-c1cc(C(=O)N/N=C/c2cccnc2)c2ccccc2n1 | 0 | 11 | · | 0 | 3 | i | · | ·
CCOc1ccc(C(C)=O)cc1COC(=O)C1=COCCO1 | -12 | · | 2 | 3 | 0 | i | -9 | -5
Cc1ccc(S(=O)(=O)N(C)C)cc1NC(=O)C(C)OC(=O)c1ccc2c(c1)OCCO2 (centres undefined) | 3 | 0 | -6 | 0 | 5 | i | -6 | -6
O=C(Nc1cccnc1Cl)c1noc2c1CCc1ccccc1-2 | · | -45 | -5 | 0 | 5 | i | 4 | -28

Assay outcomes deposited in PubChem by several laboratories.

This is a subset; rates above refer to the full screens.
